Mtb hypoxia rep = Mtb hypoxia fluorescent reporter inhibition. M. tuberculosis hypoxia-regulated fluorescent reporter, fluorescence. fluorescence inhibition, % (concentration not given with the values). actives 0.1% (n = 300,000). AID 1159583;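 active means 35 to 45% if threefold the growth effect, above 45% if 1.5-fold the growth effect; inactive means the rest, general growth blockers included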;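 further: wells of about 50 µL received 100 nL stock; 0% = vehicle wells and 100% = reference inhibitor wells; whole bacteria with a GFP reporter of the hypoxia response; strong numbers were not always called active; many hits fall short of the cut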
Sa ugtP lethal = growth inhibition of S. aureus ugtP deletion strain. AID 1259309. S. aureus RN4220 ugtP deletion, OD600 growth, 16 h; some inactives read as strong as hits. growth inhibition, % (test concentration not listed). actives 0.54% (n = 330,000);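 active means z-score under -3 and OD600 up to 0.15 on both plates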;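 further: plate controls were untreated wells for no effect and antibiotic for full effect; wells of about 80 µL received 100 nL stock; the first replicate is given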
RN4220 kill = S. aureus RN4220 growth inhibition. OD600, 16 h. inhibition, % (concentration not given with the values). actives 0.33% (n = 330,000);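 active means z-score of -3 or lower and OD600 up to 0.18 on both plates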;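 further: plate controls were untreated cells for no effect and reference antibiotic for full effect; stock transfer was 100 nL into about 80 µL; one replicate is shown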
PrP 5UTR inh = suppresses PrP 5' UTR mRNA reporter expression | actives 0.35% (n = 340,000) | AID 488862 | inhibition, % (test concentration not listed) | cell-based PrP 5' UTR mRNA reporter, plate reader;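 active means every replicate at 50% or more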;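 further: 0 = median of the neutral control wells; tested in H4 reporter cells; numbers are from one replicate; inactives centre near -14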
BJeLR viability = kills HRASV12-expressing BJeLR cells | BJeLR (HRASV12) viability, CellTiter-Glo ATP luminescence, 48 h; reference of the scale not given here | inhibition, % (concentration not given with the values) | actives 0.17% (n = 300,000);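 active means replicate mean above 50%; inconclusive means above 50% but judged a plate artefact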;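 further: 50 nL library stock added to about 25 µL; numbers are from one replicate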
Autofluor counter = compound fluorescence in toxin protease inhibitor counterscreen; actives 3.1% (n = 360,000); compound autofluorescence counterscreen, microsphere flow cytometry; active compounds read high; fluorescence intensity (test concentration not listed);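 active means at least 3 SD above the mean of all compounds, about 16000 in these data; inconclusive means too few beads counted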;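 further: 100 nL of 1 mM stock went into each well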
Mtb hypoxia rep growth = also measured in Mtb hypoxia rep; calls as there; growth inhibition, %; measured here: M. tuberculosis growth (absorbance);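 0% = vehicle and 100% = reference antibiotic; read after six days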
* marks the source's active call; other numbers are inactive results; ? = inconclusive; / = no result given.

SMILES | Mtb hypoxia rep | Mtb hypoxia rep growth | Sa ugtP lethal | RN4220 kill | PrP 5UTR inh | BJeLR viability | Autofluor counter
COc1ccc(COC(=O)C2=C(C)NC(=O)NC2c2cc(Br)c(O)c(OC)c2)cc1 (configuration not stated) | 14.7 | 7.5 | 5.8 | 5.0 | -3.4 | 1.2 | 4281
COc1ccc(CNC(=O)c2ccc3c(c2)N(C)C(=O)CS3=O)cc1 (configuration not stated) | / | / | 0.7 | -2.1 | -18.9 | -7.9 | 5478
CCOC(=O)NN=C(C)c1ccc(C)c([N+](=O)[O-])c1 | 8.0 | 1.5 | 0.5 | 4.6 | / | / | /
Cc1ccc(S(=O)(=O)N2CCOCC2)cc1NC(=O)COC(=O)Cc1ccc(Cl)cc1 | 10.8 | -2.7 | 0.6 | 3.2 | -17.5 | / | 4363
COc1ccc(Cl)cc1C(=O)Nc1ccc(NC(C)=O)cc1 | 6.1 | -1.5 | -1.5 | 0.2 | -9.1 | -14.1 | 4600
Cc1nc2ccc(NC(=O)c3ccc(Cl)c(S(=O)(=O)N(C)c4ccccc4)c3)cc2s1 | 2.4 | 1.7 | -4.5 | 15.7 | -3.3 | -5.7 | 3011
O=C(CC(=O)NCc1cccnc1)NCc1cccnc1 | / | / | 5.9 | 2.9 | -12.6 | 11.4 | 4268
O=C(NCC1CCCO1)c1cc2c(s1)CCCC2 (configuration not stated) | / | / | 5.9 | 1.6 | -45.9 | / | 8287
CCN1CCN(c2cc(C)c3cc(NC(=S)N4CCC5(CC4)OCCO5)ccc3n2)CC1 | -4.2 | 0.6 | 6.4 | 10.9 | -17.1 | 2.7 | ?
CCCCOc1ccc(CNC(=O)NS(=O)(=O)c2ccc(OCC)cc2)cc1 | 4.6 | 7.2 | -12.2 | 12.7 | -13.1 | 3.9 | 3280
Cc1ccnc(NS(=O)(=O)c2ccc(NC(=O)CN3C(=O)c4ccccc4S3(=O)=O)cc2)n1 | 1.5 | 3.9 | 5.1 | 2.5 | -12.3 | -9.3 | 4746
O=[N+]([O-])c1ccc(Cl)c(C[n+]2cccc3ccccc32)c1 | 13.4 | 1.0 | 2.9 | 0.5 | -24.5 | 16.4 | 7598
CC(C)C[C@H](NC(=O)OC(C)(C)C)C(=O)N1CCC(C(=O)N[C@@H](Cc2ccccc2)C(=O)O)CC1 | 6.3 | 3.8 | -3.4 | 2.4 | -7.2 | / | 9179
O=C(Nc1ccccc1[N+](=O)[O-])c1nc[nH]c1C(=O)NCCO | 1.9 | 6.0 | -3.4 | 6.6 | -5.1 | -6.0 | 4404
Cc1cc(C(=O)NN=Cc2cn(C)nc2C)c2ccccc2n1 | 7.9 | 5.9 | -2.0 | 1.8 | / | / | /
CCOc1ccc(S(=O)(=O)N(CC)CC(=O)NC2CCS(=O)(=O)C2)cc1 (configuration not stated) | -0.9 | -5.0 | 7.5 | 1.5 | -1.9 | / | 2906
CCn1c(-c2ccc[nH]c2=O)nc2ccccc21 | 2.1 | -1.3 | 5.6 | 2.2 | -7.7 | 14.6 | 3948
CSCCC(NC(=O)c1ccccc1)C(=O)N1CCCCCCC1 (configuration not stated) | 5.6 | 3.8 | 5.7 | 0.6 | -17.9 | / | ?
COc1cccc(-n2c(C)nn(CCOc3ccccc3)c2=O)c1 | -0.2 | 11.7 | 2.0 | 4.0 | -8.1 | 6.7 | 4426
O=C(CCN1CCN(c2ccccc2F)CC1)Nc1ccc(F)cc1 | 1.3 | 2.0 | 6.5 | 4.0 | -16.3 | -9.1 | 3825
CCN(CC)CCNc1nc(-c2cccs2)c(CC(=O)O)s1 | -0.5 | -1.7 | 1.9 | 0.0 | -28.5 | -8.3 | 2768
O=C(CCCn1c(=O)[nH]c2cc(Cl)ccc2c1=O)NC1CCCCCCC1 | 6.0 | 7.2 | -3.3 | 5.6 | -13.7 | -4.3 | 4010
COc1ccc(N/C(N)=N/c2nc(C)cc(C)n2)c(OC)c1 | -3.6 | 2.2 | 3.8 | 2.4 | -17.5 | 4.3 | 4669
CC(C)NS(=O)(=O)c1ccc(NC(=O)C(C)OC(=O)CCCOc2ccccc2)cc1 (configuration not stated) | 0.7 | 4.9 | -1.2 | 5.0 | -16.4 | / | 5072
COc1cc(-c2nnc(SC(C)C(=O)Nc3c(C)n(C)n(-c4ccccc4)c3=O)o2)cc(OC)c1OC (configuration not stated) | 1.2 | 5.9 | -5.9 | 1.0 | -19.2 | -24.4 | 10191

Copied from the list:
In Sa ugtP lethal, CC(C)NS(=O)(=O)c1ccc(NC(=O)C(C)OC(=O)CCCOc2ccccc2)cc1 (configuration not stated) reads -1.2
In Autofluor counter, COc1ccc(N/C(N)=N/c2nc(C)cc(C)n2)c(OC)c1 reads 4669
In Mtb hypoxia rep, CCN(CC)CCNc1nc(-c2cccs2)c(CC(=O)O)s1 reads -0.5
In RN4220 kill, O=C(Nc1ccccc1[N+](=O)[O-])c1nc[nH]c1C(=O)NCCO reads 6.6
In BJeLR viability, Cc1ccnc(NS(=O)(=O)c2ccc(NC(=O)CN3C(=O)c4ccccc4S3(=O)=O)cc2)n1 reads -9.3

Continued.
SMILES | Mtb hypoxia rep | Mtb hypoxia rep growth | Sa ugtP lethal | RN4220 kill | PrP 5UTR inh | BJeLR viability | Autofluor counter
CCCN1CCN(CCCNC(=O)CN2C(=O)C(CC)Oc3ccccc32)CC1 (configuration not stated) | 6.9 | 3.8 | -3.1 | 4.8 | -7.5 | 2.0 | 5086
COc1ccc(OC)c(S(=O)(=O)NCCCN2CCCC2=O)c1 | 4.7 | -3.9 | 5.4 | 3.6 | -12.6 | 3.4 | 6098
CC(Cl)C(=O)NNC(=O)CNS(=O)(=O)c1ccccc1 (configuration not stated) | -11.2 | 7.7 | -11.0 | 2.2 | -36.6 | 2.8 | 4697
CCOC(=O)N1CCC(NS(=O)(=O)c2ccc(NC(C)=O)c(Cl)c2)CC1 | -10.1 | 1.2 | -7.5 | -4.1 | / | 6.3 | 5885
CN(C)C(=S)NC1(C)CCS(=O)(=O)C1 (configuration not stated) | / | / | 2.0 | -0.1 | -19.3 | 0.3 | 4177
O=C(Nc1ccc(S(=O)(=O)Nc2ccccn2)cc1)c1cccc(Br)c1 | 13.4 | 8.8 | 1.9 | -5.8 | -0.6 | 5.5 | 5552
Cc1cccc(NC(=O)COc2ccc(/C=C\c3[nH]c(=O)[nH]c(=O)c3[N+](=O)[O-])cc2)c1 | / | / | / | / | -20.4 | 0.9 | 4013
Cc1ccc2nc(C)cc(N3CCOCC3)c2c1 | / | / | 1.1 | 6.1 | -24.0 | -3.9 | 3148
COc1ccc(C(=O)Nc2ccc(NC(=O)c3ccco3)cc2)cc1 | 0.7 | -0.8 | 0.7 | 1.5 | 8.0 | -7.1 | 3272
O=C(NCC1CCCO1)/C(=C/c1ccc(Cl)cc1)NC(=O)c1ccccc1 (configuration not stated) | 8.6 | -1.3 | 2.4 | 2.8 | -14.3 | 5.6 | 2551
Cc1ccccc1N1CCN(C(=O)CCN2C(=O)c3ccccc3C2=O)CC1 | 2.8 | 10.7 | 9.8 | 7.2 | -34.2 | -11.2 | 8320
O=C(Nc1cccc(S(=O)(=O)N2CCCCC2)c1)c1ccc2c(=O)n3c(nc2c1)CCCCC3 | 18.4 | 11.4 | -23.9 | 4.4 | -11.8 | -11.8 | 2564
COc1ccc(Cl)cc1S(=O)(=O)N1CCCC(C(=O)N2CCCC2)C1 (configuration not stated) | -5.8 | -5.8 | 12.6 | 3.6 | 8.0 | 5.8 | 4271
CCN(C(=O)c1cc2ccccc2o1)C12CC3CC(CC(C3)C1)C2 | 6.6 | 5.9 | -1.2 | -1.1 | / | -6.3 | /
CCCCN(C(=O)Cc1ccc(S(=O)(=O)N2CCOCC2)s1)c1ccccc1 | -1.2 | -5.9 | 8.2 | 2.5 | -5.9 | 6.2 | 4454
N#C/C(=C\c1ccncc1)c1nc2ccccc2o1 | 3.3 | 9.0 | 1.9 | -0.3 | / | -0.5 | /
CC(C)CCN1CCN(CCCn2cccn2)CC1CCO (configuration not stated) | 7.5 | 2.8 | -2.0 | -0.5 | -5.1 | -2.2 | 2147
O=S(=O)(NCC(c1ccco1)N1CCN(c2ccccc2F)CC1)c1ccccc1 (configuration not stated) | 10.9 | 1.5 | 0.7 | 11.4 | -22.0 | -2.6 | 2435
COc1ccccc1NC(=O)c1cc(S(=O)(=O)N2CCCCCC2)ccc1F | 10.7 | 17.8 | 7.7 | 19.9 | -39.8 | 1.8 | 5268
CCOC(=O)Cc1csc(SC(C)C(=O)Nc2ccc(NC(C)=O)cc2)n1 (configuration not stated) | 9.0 | 12.3 | 2.3 | 4.8 | -30.5 | -0.2 | 5349
C/C(=N\NC(=S)Nc1c(C)cccc1C)c1ccc(OC(F)F)cc1 | / | / | / | / | -5.5 | 15.7 | 2125
O=C1OC(C(=O)O)Cc2ccccc21 (configuration not stated) | 5.3 | 6.5 | 5.2 | 3.3 | 7.9 | 16.3 | 4396
S=C(NC1CC1)N1CCc2ccccc2C1 | -2.3 | 9.0 | 12.5 | 5.0 | -29.6 | 1.2 | 3477
Cc1ccc(/C=N/c2sc3c(c2C#N)CCC3)s1 | / | / | / | / | -82.6 | 4.0 | 2717
Nc1nonc1-c1noc(N2CCOCC2)n1 | / | / | -2.7 | -3.4 | -14.4 | / | 3504

Part of the list above, reduced to BJeLR viability, Autofluor counter and RN4220 kill:
SMILES	BJeLR viability	Autofluor counter	RN4220 kill
COc1cccc(-n2c(C)nn(CCOc3ccccc3)c2=O)c1	6.7	4426	4.0
CCCN1CCN(CCCNC(=O)CN2C(=O)C(CC)Oc3ccccc32)CC1 (configuration not stated)	2.0	5086	4.8
CC(C)CCN1CCN(CCCn2cccn2)CC1CCO (configuration not stated)	-2.2	2147	-0.5
COc1ccc(N/C(N)=N/c2nc(C)cc(C)n2)c(OC)c1	4.3	4669	2.4

Two compounds drawn at random from the list so far, as already listed:
SMILES | Mtb hypoxia rep | Mtb hypoxia rep growth | Sa ugtP lethal | RN4220 kill | PrP 5UTR inh | BJeLR viability | Autofluor counter
Cc1ccc(S(=O)(=O)N2CCOCC2)cc1NC(=O)COC(=O)Cc1ccc(Cl)cc1 | 10.8 | -2.7 | 0.6 | 3.2 | -17.5 | / | 4363
CCCCN(C(=O)Cc1ccc(S(=O)(=O)N2CCOCC2)s1)c1ccccc1 | -1.2 | -5.9 | 8.2 | 2.5 | -5.9 | 6.2 | 4454

Other entries
SMILES | Mtb hypoxia rep | Mtb hypoxia rep growth | Sa ugtP lethal | RN4220 kill | PrP 5UTR inh | BJeLR viability | Autofluor counter
NC(=O)NC(=O)C(c1ccccc1)N1CCN(S(=O)(=O)c2ccc(Br)s2)CC1 (configuration not stated) | 1.4 | -6.9 | 5.1 | 3.2 | -12.7 | / | 8468
Cc1ccc(S(=O)(=O)Nc2ccc3nc(N)sc3c2)cc1 | -0.9 | 7.6 | -5.9 | 3.0 | -14.5 | 6.2 | 19122*
Cc1cccn2c(/C=N/OCc3ccc(F)cc3)c(-c3ccc(Cl)cc3)nc12 | / | / | / | / | -13.5 | -9.9 | 4860
CSC1=C(C#N)C2(CCCCC2)C(C(=O)Nc2ccccc2)=C(C)N1 | 2.9 | -4.9 | 1.1 | -1.3 | -10.0 | / | 5022
COCC(=O)N[C@@H]1c2cc(OC)c(OC)cc2C[C@H]1OCc1ccccc1 | -2.8 | -3.6 | 0.9 | 0.0 | 0.5 | / | 3255
Cc1ccn2nc(S(=O)(=O)Nc3c(F)cccc3F)nc2n1 | 24.8 | 16.1 | 8.6 | 7.0 | 7.7 | -2.8 | 2234
Cc1ccc(CNC(=O)c2ccc(N3CCCC3=O)cc2)cc1 | 5.0 | 10.4 | 12.0 | 2.8 | -30.2 | -6.3 | 11293
COc1cccc(-n2c(C)nn(C)c2=O)c1 | 5.3 | 4.3 | -4.4 | 0.3 | -23.2 | -2.6 | 9713
CCOC(=O)c1cc(-c2ccccc2)sc1NC(=O)CC(C)C | 10.3 | 10.4 | 24.6 | -4.2 | -20.1 | 8.7 | 5547
O=C1CC(c2ccccc2)CC(O)=C1C=Nc1ccccc1 (configuration not stated) | -13.3 | 0.2 | 4.2 | 3.9 | -25.2 | -9.8 | 4589

Source: PubChem (several laboratories)
